Assay outcomes: PubChem BioAssay, National Center for Advancing Translational Sciences (NCATS)
GLA inh pH 4.5: blocks human alpha-galactosidase A at pH 4.5 | purified enzyme, 4-MU-alpha-Gal fluorescence, pH 4.5 | activity change, negative = inhibition, % at 105 µM | 230,000 tested, under 10 active | AID 1467; inconclusive = small, poorly fitted or top-dose-only inhibition, or a rising curve; inactive = flat fitted curve, though single readings scatter; no compound was filed as active;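 further: 0% = full activity with enzyme and -100% = basal without enzyme; dose as in the result columns while the protocol names 77 µM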
Target sequence (P06280 whole entry, looked up): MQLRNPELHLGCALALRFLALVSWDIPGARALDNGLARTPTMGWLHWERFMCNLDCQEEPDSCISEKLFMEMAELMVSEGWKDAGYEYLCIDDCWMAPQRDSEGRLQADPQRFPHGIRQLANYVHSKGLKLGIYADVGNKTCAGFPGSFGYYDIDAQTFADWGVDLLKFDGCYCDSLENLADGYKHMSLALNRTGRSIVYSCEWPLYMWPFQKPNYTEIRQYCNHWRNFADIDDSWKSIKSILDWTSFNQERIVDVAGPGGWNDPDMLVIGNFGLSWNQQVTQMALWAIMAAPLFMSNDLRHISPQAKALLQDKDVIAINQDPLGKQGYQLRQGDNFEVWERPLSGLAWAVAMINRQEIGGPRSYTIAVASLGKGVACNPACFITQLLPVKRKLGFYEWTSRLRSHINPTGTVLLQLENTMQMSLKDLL
Rango-impB inh: inhibitors of Rango-importin beta complex formation; Q14974; Potency, µM (series often up to 92.2 µM), for inactives: at the top dose inhibition of complex formation; actives 0.031% (n = 340,000); Rango CFP/YFP FRET sensor + importin beta, 45 min; active = rising FRET ratio curve, often small or poorly fitted; inconclusive = mostly compound fluorescence or quenching in the first reads; inactive = flat curves in all reads;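 further: potency means the concentration at half of the fitted maximal effect; 0% = DMSO wells and 100% = buffer wells lacking importin beta; nearly all actives have a fitted effect of over 15% in size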
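FRET biosensor (snurportin 1 IBB flanked by EYFP and cerulean), 50 nM, with compound 5 min, then 0.125 microM importin beta in PBS, 1 mM DTT, 0.02% Tween-20, 0.1% BSA. CFP/YFP ratio read after 45 min at room temperature; pre-read flags interference.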
Rango dissoc inh: inhibitors of RanGTP-induced Rango-importin beta complex dissociation; O95149+P62826; AID 540253; Potency, µM (doses to about 46.1 µM), for the others: top-dose activity change, negative = inhibition; actives 0.071% (n = 340,000); Biochemical FRET Rango-importin beta, RanGTP-induced dissociation; active means falling FRET ratio curve, often poorly fitted, with flat reads before Ran was added; inconclusive means other falling curves, or compound fluorescence or quenching; inactive means flat or rising ratio curve;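 further: potency means the concentration at half of the fitted maximal effect; % of control where 0% means no effect; nearly all actives have a fitted effect of over 45% in size; -100% = wells without RanGTP and RCC1; the record marks most hits as doubtful in a second field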
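Two FRET readings bracket the reaction: one 5 min after compound meets Rango–importin beta, another 45 min after RanGTP-RCC1 (0.6 uM Ran, 0.2 uM RCC1, 2 mM GTP) is added. Only the second defines inhibition.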
miR-21 reporter: raises the signal of a miR-21 reporter; HeLa miR-21 FLuc reporter, luciferase, 48 h; 340,000 tested, under 10 active; Potency, µM (doses to about 38.3 µM), inactives show at the highest dose reporter change, positive = more light; active = well fitted rising curve with a large enough effect; inconclusive = small, poorly fitted or top-dose-only effect; inactive = no such curve, though single readings can be large or run the other way;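 further: % of control where 0% means no effect; miR-21 action dims this reporter so a rising signal means less miR-21 action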
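Luminescence from a firefly luciferase reporter carrying a miR-21 binding site downstream, stably expressed under a CMV promoter in HeLa cells that make miR-21 endogenously, reports miRNA modulation after 48 h compound exposure up to approximately 40uM final.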
Active calls of the source: *; ? = inconclusive; . = no result given; & = joins results of further samples; [ ] = remark or other dose.

Compound | GLA inh pH 4.5 | Rango-impB inh | Rango dissoc inh | miR-21 reporter
C=CC[n+]1c(-c2ccc(OC)c(OC)c2)csc1NNC(=O)Nc1ccccc1 | 0 | -3.0% | 0% | 17%
NS(=O)(=O)c1ccc(NC(=S)Nc2nn(Cc3ccc(Cl)cc3Cl)cc2Cl)cc1 | 1 | -1.4% | 13% | -15%
COc1ccccc1NC(=O)Nc1nnc(CC(=O)Nc2cccc(C)c2)s1 | -11 | -3.2% | 2% | 7%
O=C(c1ccc([N+](=O)[O-])cc1)N1CCN(C(=O)C2CCCCC2)CC1 | . | -0.9% | -6% | 3%
Cn1c(NNC(=O)C2CCCCC2)cc(=O)n(C)c1=O | 5[21.1 µM] | -7.7% | -28% | 1%
Cc1ccc(N2C(=O)C(Cc3ccc(O)cc3)NC2=S)cc1C (stereo not given) | -2 | -1.1% | -14% | 1%
CCC1(C)Cc2ccccc2-c2nc(SC)[nH]c(=O)c21 (stereo not given) | . | 3.0% | -1% | 0%
Cc1c(Nc2ccc(C=O)cc2)c(=O)n(-c2ccccc2)n1C | 7 | 2.7% | 2% | -2%
COc1cccc(NC(=O)CCc2nc(-c3cccs3)no2)c1 | . | -2.1% | 10% | -6%&3%
CC1CN(C(=O)c2ccc(NS(=O)(=O)c3cccc(Cl)c3)cc2)CC(C)O1 (stereo not given) | . | -4.5% | -14% | -3%
Cc1ccc(C(=O)NC2CCN(CC(=O)Nc3ccccc3Cl)CC2)cc1 | . | 4.6% | 27% | -4%
COc1ccc(C(C(=O)NC2CCCC2)N(Cc2cccs2)C(=O)c2ccn[nH]2)cc1OC (stereo not given) | 1 | 4.9% | 0% | -1%
CCN1C(=O)c2cccc3c(NC(=O)c4ccc(OC)c(OC)c4)ccc1c23 | -2 | ? | 19% | -1%
COc1ccc(C(=O)/C=C/C(=O)N(CC(=O)NC2CCCCC2)Cc2cccs2)c(O)c1 | -9 | -2.7% | 12% | 27%
CCCCC(=O)N=c1sc2cc([N+](=O)[O-])ccc2n1C | -27 | 0.3% | ? | -9%
O=C(NCc1ccc(C(F)(F)F)cc1)C1CC(c2ccc(C(F)(F)F)cc2)=NO1 (stereo not given) | . | 4.0% | 3% | .
CC1(c2ccc3c(c2)OCCCO3)NC(=O)N(CC(=O)Nc2cccc(C#N)c2)C1=O (stereo not given) | . | 0.1% | 2% | .
O=C(O)c1ccc(NC(=O)c2cn(-c3ccccc3)nc2-c2cccc(Cl)c2)cc1 | . | -1.3% | 8% | -3%
O=C(CN1CCCC1)NC(=O)NC1CCCC1 | 2 | -0.8% | 1% | -10%
Cc1ccc(N(CC(=O)Nc2cc(C)cc(C)c2)S(=O)(=O)c2c(C)noc2C)cc1 | . | 0.1% | -1% | ?
Cc1ccc(SCC(=O)Nc2ccc3c(c2)C(=O)NC3=O)cc1 | 1 | 0.8% | 1% | 3%
CCOC(=O)C1CCN(C(=O)Cc2cccc3ccccc23)CC1 | 1 | 1.7% | 0% | -4%
CCCCn1c(N)c(N(CCC(C)C)C(=O)c2cccc(-n3cnnn3)c2)c(=O)[nH]c1=O | . | -4.1% | -7% | .
O=C(Nc1ccc(O)c2c(=O)cc(-c3ccccc3Cl)oc12)c1ccccc1Cl | -2&6 | 2.3% | 1% | -10%
OCC(O)CNC(=S)NC1CCCCC1 (stereo not given) | -3 | 2.1% | -2% | -2%
OC(CN1CC=C(/C=C/c2ccc(Br)cc2)CC1)c1ccccc1 (stereo not given) | . | -3.1% | -8% | 6%
O=S(=O)(c1ccccc1)N1CCc2ccccc2C1 | . | 4.6% | 21% | -6%
N/C(=N\N=C\c1ccc(Br)o1)c1nonc1N | -6 | -1.7% | -7% | -61%
CS(=O)(=O)N(CC(=O)NC1CCCCC1)c1cccc(F)c1 | 2 | 2.0% | 5% | 0%
Cc1noc(C)c1S(=O)(=O)N(C)C[C@H]1Oc2ccc(NC(=O)NC3CCCCC3)cc2C(=O)N([C@H](C)CO)C[C@@H]1C | . | 0.5% | 0% | .
COC(=O)C1CSc2[nH]c(=O)sc2C1c1ccc(O)c(OC)c1 (stereo not given) | -14 | 3.2% | 1% | -7%
C/C(=N/NC(=O)CSc1nc2ccccc2n1C)c1ccco1 | . | -6.0% | 18% | 0%
O=C(CN1/C(=C(/O)c2ccccc2)C(=O)c2ccccc2S1(=O)=O)c1ccccc1 | -8 | 6.5% | -13% | 21%
COc1ccccc1-n1cc(C(=O)N2CCCC(CO)(Cc3ccccc3C)C2)cn1 (stereo not given) | ? | 1.0% | -17% | -11%
CCCNC(=S)N1CCC(NC(=O)c2ccc(OC)cc2)CC1 | . | 5.5% | 6% | 0%
O=C(Nc1ccc(S(=O)(=O)NCC2CCCO2)cc1)C1CC(=O)N(c2ccccc2)C1 (stereo not given) | . | 5.1% | -9% | -1%
Cc1cccn2c(NC(=O)c3ccccc3F)c(-c3ccccc3)nc12 | . | -3.2% | 19% | -13%
CC(=O)Nc1ccc(S(=O)(=O)NCc2csc(-c3cccnc3)n2)cc1 | -2 | 1.4% | 2% | -6%
O=C(COC(=O)C12CC3CC(CC(C3)C1)C2)NCc1ccccc1 | . | 7.8% | 1% | .
COc1cc(C(=O)NCC(=O)OCc2cc(=O)oc3c(C)c(C)ccc23)cc(OC)c1OC | 5 | 6.2% | 3% | 4%
C[n+]1ccc(CC2C(=[N+]([O-])[O-])C=Nc3ncnn32)cc1 (stereo not given) | -2 | -1.1% | 0% | -1%
O=C(CN1C(=O)NC2(CCCCC2)C1=O)Nc1ccc(Cl)cc1 | . | 0.4% | -24% | .
CC(C)(C)c1cc(-c2csc(Nc3ccccc3)[n+]2Cc2ccc(C(=O)O)cc2)cc(C(C)(C)C)c1O | -3 | -2.6% | 10% | 28%
C=CCNC(=S)N/N=C/c1ccc(C)cc1C | 5 | 2.6% | 3% | 17%
Cn1c(=O)n(C)c2cc([N+](=O)[O-])c(N3CCN(S(C)(=O)=O)CC3)cc21 | 9 | 0.4% | 1% | -5%
CCOc1ccc2c(c1)C(c1ccccc1)=NNC(c1ccccc1)=N2 | -12 | 1.7% | -2% | -50%
CCn1cc(C(=O)O)c(=O)c2cc(F)c(N3CCN(C(=S)NC(=O)c4cccc(F)c4)CC3)cc21 | 4 | 3.1% | 1% | -2%
CC(=O)NC(C)(C)C1CC=C(C)/C(=N\O)C1 (stereo not given) | -6 | 0.2% | 1% | 0%
Cc1ccc(C)c(N)c1 | . | -0.4% | 0% | .
CSC1=N/C(=C/c2cccnc2)C(=O)N1Cc1ccccc1 | -12 | -0.5% | -5% | -4%

(listing goes on)
Compound | GLA inh pH 4.5 | Rango-impB inh | Rango dissoc inh | miR-21 reporter
CC(Sc1nncn1C)C(=O)Nc1nnc(-c2ccccc2)s1 (stereo not given) | -2 | -1.8% | -22% | -56%
Cc1ccccc1NS(=O)(=O)c1ccc2c(c1)oc(=O)n2C | . | -0.6% | 0% | 1%
COc1cc(OC)c2ccc(=O)oc2c1C(CC(=O)N1CCN(c2ccccc2)CC1)c1ccc2c(c1)OCO2 (stereo not given) | -11 | -3.7% | 6% | 5%
COC(=O)c1cc2cc(Cl)ccc2nc1SC | -1 | 1.1% | 13% | -4%
Cc1oc(-c2ccccc2Cl)nc1CSc1nc2c(c(=O)[nH]1)CCCC2 | -6 | 3.9% | 6% | 0%
CCOC(=O)N1CCC(N(CCN(C)C)C(=S)Nc2cccc(C)c2)CC1 | 0 | 5.1% | 3% | -8%
COc1ccc(OC)c(NC(=O)CSc2nccn2Cc2ccco2)c1 | . | 0.0% | -18% | -16%
Cc1cc(C)c(O)c(-c2cc(C(=O)Nc3ccc(S(=O)(=O)N4CCOCC4)cc3)[nH]n2)c1 | -14 | 0.0% | -1% | ?
C/C=C(/C)C(=O)O[C@@H]1c2cc3c(c(OC)c2-c2c(cc(OC)c(OC)c2OC)[C@@H](OC(C)=O)[C@@H](C)[C@H]1C)OCO3 | -5 | -4.4% | 14% | -17%
COc1cccc(-n2nnnc2SCC(=O)Nc2ccc(OC)cc2OC)c1 | . | 0.2% | 9% | 2%
Cn1ccc(=S)c2ccccc21 | 1 | 1.4% | 6% | 1%
C/C(=N\Nc1cccc(Cl)c1)c1ccncc1 | 2 | 0.0% | 24% | -38%
CC12CCC(=O)N1C(C(=O)Nc1cc(Cl)ccc1N1CCCC1)CS2 (stereo not given) | . | 0.3% | -14% | .
O=C(COC(=O)CCc1ccccc1)NNC(=O)c1ccccc1 | . | 0.0% | 8% | .
CN(C(=O)CN1C(=O)c2ccc([N+](=O)[O-])cc2C1=O)C1CCCCC1 | . | 7.4% | 34% | .
CCN(C(=O)COC(=O)/C(=C/c1ccccc1)NC(C)=O)c1c(N)n(Cc2ccccc2)c(=O)[nH]c1=O | . | ? | -16% | .
O=C(CN(C(=O)c1ccc(Cl)cc1Cl)N1C(=O)C2C3C=CC(C3)C2C1=O)c1ccc(F)cc1 (stereo not given) | . | 0.0% | -5% | .
O=C1CC(=O)Nc2cc(S(=O)(=O)N3CCN(c4cccc(C(F)(F)F)c4)CC3)ccc2N1 | -19[21.1 µM] | 0.0% | 11% | 27%
COc1ccccc1C(=O)N/N=C/c1ccc2c(c1)OCO2 | . | 2.1% | -11% | -61%
COc1ccccc1N1CCN(C(=O)c2sc3ncn(CC(=O)N4CCC(C)CC4)c(=O)c3c2C)CC1 | . | -0.8% | 1% | 17%

Some of these compounds in order of length of the SMILES, smallest number first:
Compound | GLA inh pH 4.5 | Rango-impB inh | Rango dissoc inh | miR-21 reporter
CC12CCC(=O)N1C(C(=O)Nc1cc(Cl)ccc1N1CCCC1)CS2 (stereo not given) | . | 0.3% | -14% | .
O=C1CC(=O)Nc2cc(S(=O)(=O)N3CCN(c4cccc(C(F)(F)F)c4)CC3)ccc2N1 | -19[21.1 µM] | 0.0% | 11% | 27%
COc1ccccc1N1CCN(C(=O)c2sc3ncn(CC(=O)N4CCC(C)CC4)c(=O)c3c2C)CC1 | . | -0.8% | 1% | 17%
O=C(CN(C(=O)c1ccc(Cl)cc1Cl)N1C(=O)C2C3C=CC(C3)C2C1=O)c1ccc(F)cc1 (stereo not given) | . | 0.0% | -5% | .

Further compounds follow.
Compound | GLA inh pH 4.5 | Rango-impB inh | Rango dissoc inh | miR-21 reporter
COc1ccc(NC(=O)OCCN2CCN(Cc3ccccc3)CCC2=O)cc1 | -2&2 | 0.8% | 22% | -15%
Cc1ccc(S(=O)(=O)NNC(=S)Nc2cccc(F)c2)cc1 | 4 | -2.5% | 7% | -3%
O=C(CC1Nc2ccccc2NC1=O)NCC1COc2ccccc2O1 (stereo not given) | 4 | ? | -26% | -1%
COC(=O)c1c(NC(=O)CN2CCC(C(N)=O)CC2)c2c(C)cccc2n1C | 13 | -1.4% | -8% | -1%
CC(C(=O)OCC(=O)Nc1cccc(S(=O)(=O)N(C)C)c1)N1C(=O)c2ccccc2C1=O (stereo not given) | -19 | 0.1% | -5% | 1%
Clc1ccc(OCCSc2ncccn2)cc1 | 3 | 4.4% | 17% | -61%
CN(CC(=O)NCc1ccncc1)S(=O)(=O)c1ccc(Cl)cc1 | 6 | -3.6% | 8% | -1%
CCOc1ccc(CNC(=O)C2CCN(c3nnc(C)c4c(C)n(-c5ccc(C)cc5)nc34)CC2)cc1 | . | -5.5% | -6% | -4%
Cc1ccccc1N1CC(C(=O)Nc2nnc(SCCN3CCOCC3)s2)CC1=O (stereo not given) | . | -1.9% | -16% | -3%
CCOc1ccc(N2C(=O)CC(N(C)Cc3ccccc3)C2=O)cc1 (stereo not given) | 7 | ? | 2% | -2%
O=C(CN1C(=O)c2cccnc2Oc2ccc(Cl)cc21)NC1CCCCCC1 | . | -0.5% | -13% | 0%
N#CC1=C(S)N(c2ccccc2)C(c2ccco2)NC1=O (stereo not given) | -9 | -0.7% | -29% | 2%
S=c1[nH]nc(Nc2cccc(Cl)c2)s1 | 5 | -1.9% | 6% | -37%
Cc1cccc2[nH]c3c(N4CCC5(CC4)OCCO5)ncnc3c12 | -3 | -1.3% | 5% | 27%
CC(=O)Nc1c(Br)cc2c(c1Br)C(=O)c1ccccc1-2 | . | 0.3% | -8% | .
CC(C)(C)c1ccc(-c2nc(N)nc(N)n2)cc1 | -6 | 3.7% | -14% | -48%
CN(C)NC(=O)c1ccsc1NC(=O)c1ccc(S(=O)(=O)N2CCCC2)cc1 | -4 | -1.3% | -1% | 9%

Only part of the results is shown, so the mix of outcomes need not match the whole.
